KCNQ2 enhance – potentiators of rat KCNQ2 potassium channel. CHO-K1 KCNQ2, FluxOR thallium flux fluorescence; active compounds read high. B-score at 10 µM. 310,000 compounds, 0.54% hits. AID 2239, 2010;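 active = fluorescence ratio B-score at least 3 SD of library B-scores, with initial fluorescence B-score within 3 SD, cut at about 5.3 in these data; same plate scores as AID 2156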;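 also: B-score of peak minus minimum over baseline fluorescence ratio after K+ and Tl+ stimulus; positive B-score means potentiation of KCNQ2 with more thallium influx and brighter signal; only the inactives scoring about 0 or higher are listed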
Target sequence (O88943 whole entry, looked up): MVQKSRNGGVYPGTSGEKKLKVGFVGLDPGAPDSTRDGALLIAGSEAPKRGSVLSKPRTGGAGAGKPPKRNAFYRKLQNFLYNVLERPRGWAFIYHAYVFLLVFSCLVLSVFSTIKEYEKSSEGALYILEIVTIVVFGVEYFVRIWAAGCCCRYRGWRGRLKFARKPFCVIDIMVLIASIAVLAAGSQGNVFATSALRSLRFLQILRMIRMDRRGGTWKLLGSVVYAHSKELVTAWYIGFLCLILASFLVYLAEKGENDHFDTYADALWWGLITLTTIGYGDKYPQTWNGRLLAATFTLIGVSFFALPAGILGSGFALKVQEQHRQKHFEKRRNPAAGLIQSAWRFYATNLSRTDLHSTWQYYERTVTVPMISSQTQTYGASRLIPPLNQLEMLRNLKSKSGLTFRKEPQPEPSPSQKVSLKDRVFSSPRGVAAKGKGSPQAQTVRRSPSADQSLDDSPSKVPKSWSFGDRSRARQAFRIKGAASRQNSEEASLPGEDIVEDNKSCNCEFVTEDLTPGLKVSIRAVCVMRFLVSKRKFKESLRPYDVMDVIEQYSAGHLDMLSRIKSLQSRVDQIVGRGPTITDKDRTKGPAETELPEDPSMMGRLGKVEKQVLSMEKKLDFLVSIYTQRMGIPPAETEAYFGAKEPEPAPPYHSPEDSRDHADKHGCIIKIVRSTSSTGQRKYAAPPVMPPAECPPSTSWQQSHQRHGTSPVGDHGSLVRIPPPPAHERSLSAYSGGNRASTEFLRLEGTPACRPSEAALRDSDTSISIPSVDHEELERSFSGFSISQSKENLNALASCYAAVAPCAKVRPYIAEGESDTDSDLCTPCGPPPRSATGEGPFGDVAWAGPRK
KCNQ2 enhance baseline – also measured in KCNQ2 enhance; calls as there; B-score; compound at 10 µM; measured here: initial fluorescence intensity artifact check;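 brightness before thallium and not channel activity; 0 = typical well and far values either way flag optical interference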
* = called active by the depositor; & = joins results of further samples.

SMILES	KCNQ2 enhance	KCNQ2 enhance baseline
CCC(C)[C@H](NS(=O)(=O)c1ccc(C)cc1)C(=O)N1CCC(C(=O)N2CCC(C(N)=O)CC2)CC1 (some centres undefined)	0.6	1.1
O=C1[C@@H]2[C@H](Cc3ccc(O)cc3)N[C@]3(C(=O)Nc4ccccc43)[C@@H]2C(=O)N1c1ccc(F)cc1	0.07	-0.46
O=C(/C=C/c1ccccc1)OCCN1C(=O)c2ccccc2C1=O	0.51	0.15
COc1ccc(CN(C)C(=O)c2cc(S(=O)(=O)Nc3ccccc3F)ccc2C)c(OC)c1	1.2	1.9
CC(C)N(Cc1nccn1C)C(=O)c1cc(COc2cccc(C(F)(F)F)c2)on1	3.2	0.37
CN(CC(=O)N1CCN(c2ccccc2)CC1)S(=O)(=O)c1cnc[nH]1	0.1	1.9
Nc1ccccc1-c1nnn(CC(=O)Nc2ccc3c(c2)OCCO3)n1	1.6	-0.94
COC1=C/C(=C/c2c(N)n3c(nc2=O)sc2cc(S(C)(=O)=O)ccc23)C=CC1=O	0.74	-0.63
CCOC(=O)Cc1csc(NC(=O)c2csc(C)c2)n1	0.87	0
COc1ccccc1CNC(=O)CN1CCN(S(=O)(=O)c2cccs2)CC1	0.91	-1.6
Cc1cc(C)nc(NS(=O)(=O)c2ccc(NC(=O)C(C)Oc3ccccc3F)cc2)n1 (centres undefined)	0.22	-1.3
Cc1cccc(N(C(=O)c2csnn2)C(C(=O)NCc2ccccc2)c2ccncc2)c1 (centres undefined)	0.09	0.3
O=C(c1cc2c(s1)-c1ccccc1OC2)N1CCCC1	0.84	0.98
CCOC(=O)C1(Cc2cccc(OC)c2)CCN(CC(O)CO)CC1 (centres undefined)	1.1	-1
CCCNC(=O)c1onc(CSc2ccc(Cl)cc2)c1C(=O)NCCOC	0.38	2.2
COc1ccc(Cl)cc1-c1nc(-c2ccc(NC(=O)c3ccncc3)cc2)no1	0.06	-1.9
CCOc1cc(C=O)ccc1OCC(=O)N1CCCC1	0.01	0.09
COC(=O)c1ccc(C(=O)OC)c(NC(=S)N2CCN(c3cccc(Cl)c3)CC2)c1	0.62	-0.01
Cc1ccc(NC(=O)c2cc3ccccc3cc2O)cc1	0.97	1.4
COc1cccc(OCC(=O)O/N=C(\N)c2ccc(OC)c(OC)c2)c1	1.1	0.53
COc1ccc(Nc2ncnc3c2oc2ccccc23)cc1	1.3	-2
Cc1ccc(NC(=S)N/N=C/c2ccc(OCCC(C)C)cc2)c(C)c1	1.9	1.3
N=C1c2ccccc2CN1NC(=O)c1cccc(S(=O)(=O)N2CCCC2)c1	0.91	-1.9
O=C(c1ccc(CS(=O)(=O)c2c(Cl)cccc2Cl)o1)N1CCN(c2ccccn2)CC1	0.94	0.01
COc1ccc(N(C)S(=O)(=O)c2c(C)[nH]c(=O)[nH]c2=O)cc1	0.44	0.05
The results go on.
SMILES	KCNQ2 enhance	KCNQ2 enhance baseline
O=C(OCc1c(F)cccc1Cl)c1cnccn1	1.8	-0.38
CCN(CC)S(=O)(=O)c1ccc(/C=C/C(=O)OCC(=O)N(C)C)cc1	0.03	-1.4
Cc1ccc2nc(-c3ccc(NC(=S)NCCC(C)C)cc3)sc2c1	0.12	-1.4
O=C1c2ccccc2C(=O)c2c(Nc3ccc(CCO)cc3)ccc(O)c21	0.53	-2
Cc1cccc(NC(=S)NCC(c2cccnc2)N2CCOCC2)c1 (centres undefined)	1.7	0.09
Cc1cc(NC(=O)c2cccc(S(=O)(=O)N3CC(c4ccccc4)CC3=O)c2)no1 (centres undefined)	0.02	0.03
O=C(NCC1CCCO1)C1CCCN1C(=O)NC1CCCCC1 (centres undefined)	0.15	-1.3
CCCc1cc(=O)[nH]c(SCC(=O)Nc2sc3c(c2C#N)CCCC3)n1	0.84	0.02
CCCn1c(SCC(=O)N2CCN(CC)CC2)nc2c1c(=O)n(C)c(=O)n2C	1	3.1
Cc1sc2nc(CN3CCN(c4ccc(O)cc4)CC3)[nH]c(=O)c2c1C	0.07	1.4
Cc1ccc(CNC(=O)CSc2nnc3c(n2)[nH]c2ccccc23)cc1	0.01	-1.4
Cc1ccc(/C=N/NC(=O)Cc2ccc(Cl)cc2)s1	1.2	2
O=C(OCC(=O)N1CCN(S(=O)(=O)c2ccccc2)CC1)c1ccc([N+](=O)[O-])o1	0.98	-0.29
O=C(CSCc1ccccc1Cl)Nc1ccc(C(=O)O)cc1	1.4	-0.73
O=c1[nH]c2ccc(NC(=S)NCCc3ccccc3)cc2[nH]1	0.86	-1.9
O=C(N/N=C/c1ccccc1C(=O)O)c1cc(-c2ccc3c4c(cccc24)CC3)n[nH]1	2	-0.3
COc1ccc(C2=NS(=O)(=O)N(C)C(C(=O)NCc3ccc(F)cc3)=C2)cc1OC	0.01	-0.67
Cc1[nH]nc(-c2ccc(O)cc2O)c1-c1ccc(Cl)cc1	2.8	-0.2
Cc1cc(C)c(S(=O)(=O)NC2CC(C)(C)NC(C)(C)C2)cc1C	0.95	-0.4
CCc1cc2c(=O)c(-c3nc4ccccc4n3C)c(COCC(=O)O)oc2cc1O	0.52	1.5
COc1ccc(-c2nc(CN3CCN(Cc4cccc(F)c4)CC3)c(C)o2)cc1	0.08	0.67
Cc1ccccc1OCCCN1CCOCC1	0.29	0.28
Cc1cc2ccc(C)c(C)c2nc1SCC(=O)c1cccs1	0.51	-3.2
O=C(CCN1C(=O)/C(=C\c2cccc(Br)c2)SC1=S)N1CCOCC1	2.2	1.8
Cc1ccc(C)n1CCN1CCN(CC(=O)Nc2ccc(S(N)(=O)=O)cc2)CC1	0.04	0
Continued.
SMILES	KCNQ2 enhance	KCNQ2 enhance baseline
CCCC(=O)Nc1ccc(Cl)c(NC(=O)c2ccc([N+](=O)[O-])cc2Cl)c1	0.72	1.1
CCCC(=O)Nc1ccc(Cl)c(NC(=O)c2cccnc2)c1	0.11	-0.95
Cc1noc(C(=O)Nc2ccccc2C(F)(F)F)c1Cl	1.3	-0.67
CC(=O)N1CCN(CC(O)COc2ccc(Br)cc2)CC1 (centres undefined)	0.2	-0.01
CCCc1cc(=O)oc2cc(OCC(=O)NC3CCN(Cc4ccccc4)CC3)ccc12	0.83	-0.31
CCOC(=O)C1CCCN(C(=O)COC(=O)C2=COCCO2)C1 (centres undefined)	1.5	1.1
Cc1cc(C)n(C2CCCCC2OC(=O)CCc2ccccc2)n1 (centres undefined)	1.1	-0.08
CN(C)S(=O)(=O)c1ccc(C(=O)Nc2ccnn2C2CCCCC2)cc1	0.65	-0.55
CN(C(=O)c1ccc2c(c1)S(=O)(=O)N=C1CCCCCN12)c1ccccc1	0.33	-0.02
CC(C(O)c1ccc(O)cc1)N1CCC(Cc2ccccc2)CC1 (centres undefined)	0.67&0.79	-1.4&-1.1
O=C(O)Cc1ccc(O)cc1	0.04	-1.2
CCOc1cc(CN2CCCCCC2)ccc1OC	1.3	0
CCNC(=S)N1CCC(NC(=O)C2CCCCC2)CC1	0.75	-1.2
O=C(Oc1ccc(Br)cc1C(=S)N1CCCCC1)c1cc([N+](=O)[O-])cc([N+](=O)[O-])c1	0.76	2
CC/C(O)=C1\C(=O)CCCC1=NCc1nc2ccccc2[nH]1	0.56	-0.69
CC(C)C(=O)N1CCN(c2ccc(NC(=S)NC(=O)c3cc4ccccc4o3)cc2)CC1	0.1	-0.79
COc1ccc(C(=O)C[n+]2cn(C(F)F)c3ccccc32)c(F)c1	0.1	0.12
COC(=O)c1sccc1NC(=O)c1cc(OC)c(OC)c(OC)c1	0.18	-0.69
Cc1ccc(O)c(C2=NCCNC(C(F)(F)F)=C2)c1	1.4	-0.04
Cc1ccc(CNc2ccc(N3CCOCC3)cc2)cc1	0.06	-0.76
O=C(NCc1ccco1)/C(=C\c1cccs1)NC(=O)c1cccs1	0.04	-0.36
Nc1ccccc1SCC(=O)Nc1nccs1	0.09	2
Cc1cccc(/C(N)=N/OC(=O)CCC2CCCCC2)c1	3	3.7
Cc1ccc(NC(=O)C(C)OC(=O)c2ccc(Cl)nc2)cc1S(=O)(=O)N1CCOCC1 (centres undefined)	1.6	-1.1
CCOc1cccc(CNCCCSc2ncccn2)c1	1.3	-0.25

Single records, from the list above. Order of screens: KCNQ2 enhance, KCNQ2 enhance baseline
COc1ccc(-c2nc(CN3CCN(Cc4cccc(F)c4)CC3)c(C)o2)cc1 across the screens: 0.08, 0.67
CCOC(=O)Cc1csc(NC(=O)c2csc(C)c2)n1 across the screens: 0.87, 0
Cc1cc(C)c(S(=O)(=O)NC2CC(C)(C)NC(C)(C)C2)cc1C across the screens: 0.95, -0.4
Cc1ccc(O)c(C2=NCCNC(C(F)(F)F)=C2)c1 across the screens: 1.4, -0.04
Cc1cc(NC(=O)c2cccc(S(=O)(=O)N3CC(c4ccccc4)CC3=O)c2)no1 (centres undefined) across the screens: 0.02, 0.03

Following part.
SMILES	KCNQ2 enhance	KCNQ2 enhance baseline
CC1CN(c2ccc(NC(=S)Nc3ccc(N4CC(C)OC(C)C4)cc3)cc2)CC(C)O1 (centres undefined)	2.4	-1.5
COC(=O)c1ccc(NC(=O)CN(c2ccc(C)cc2)S(=O)(=O)c2c(C)nn(C)c2C)cc1	0.19	-1.8
O=C(Nc1ccccc1)Nc1ccccn1	0.25	1.3
Cc1cc(C)cc(C(=O)NC(CC(N)=O)c2ccc(NC3CCCC3)c([N+](=O)[O-])c2)c1 (centres undefined)	0.76	0.45
COc1ccc2cc(S(=O)(=O)n3cnc(C)c3)ccc2c1	0.23	-0.04
O=C(/C=C/c1ccc(Cl)cc1Cl)c1nc2ccccc2[nH]1	1.1	-0.67
Cc1ccc(S(=O)(=O)N2CCCOC2CNC(=O)C(=O)NCCc2c[nH]c3ccccc23)cc1 (centres undefined)	3.3	-1.2
Cc1ccc2c(O)c(C)c(=O)[nH]c2n1	0.03	-1.3
CC(C)c1ccc(N(CC(=O)O)S(=O)(=O)c2cccnc2)cc1	0.34	-0.43
O=C1CCC(=O)N1CCc1c[nH]c2ccccc12	0.34	-0.18
COc1ccc(CCNC(=O)CSc2nnc3ccc(-c4ccccn4)nn23)cc1OC	1.5	-0.12
CC1=C(C#N)C2(O)C(=O)c3ccccc3C2(O)N1 (centres undefined)	0.06	1.4
O=C1c2ccccc2-c2nc3ccccc3cc21	0.04	-0.6
CC(C)CCN1CCN(Cc2ccc(C#CCCO)cc2)CC1CCO (centres undefined)	1	-0.43
CCOC(=O)c1c(C)[nH]c(C)c1C(=O)CSc1nc2ccccc2n1CCOC	1.6	-1
Cc1nc(CCNC(=O)CC2C(=O)NCCN2Cc2ccccc2F)sc1C (centres undefined)	0.23	-2.1
O=C(CN1CCCc2ccccc21)N1CCc2ccccc21	0.12	0.44
CCOC(=O)Cc1cnc(NC(=O)CSc2nc(C)cc(C)n2)s1	2.1	-0.33
CC(Oc1ccccc1Cl)C(=O)/C=C/N(C)C (centres undefined)	0.71	-2.4
CC(C)OC(=O)/C(=C\c1cccnc1)NC(=O)c1ccccc1	0.53	1
C=CCn1c(C2CC(=O)N(c3ccc(C)cc3)C2)nc2ccccc21 (centres undefined)	0.39	-0.48
CC1/C(=N/O)C(CN(C)C)C2CC1C2(C)C (centres undefined)	0.37	1.2
O=C(CSc1nnc(-c2ccc(F)cc2)o1)N1CCCCC1	0.28	-0.95
COC(=O)C1=NN(C(=O)c2ccccc2)C(C)(O)C1 (centres undefined)	1.5	0.99
OC(COc1ccccc1)CN1C2=NCCCN2c2ccccc21 (centres undefined)	1.6	0.01
The list continues.
SMILES	KCNQ2 enhance	KCNQ2 enhance baseline
O=C(Nc1nnc(S(=O)(=O)N2CCOCC2)s1)c1ccccc1	0.53	-1.1
Cc1c(C(=O)N/N=C/c2cccnc2)sc(N)c1C#N	1.5	-0.03
CCOC(=O)C1CCN(C(=O)CCc2nnc3ccc(NCc4ccco4)nn23)CC1	0.33	1.2
CC(Sc1ccc(Cl)cc1)C(=O)NCC1CCCO1 (centres undefined)	0.63	0.08
NC(N)=N/N=C/c1ccc(Cl)c(Cl)c1	0.48	2
CCOC(=O)C1=C(CC)Nc2ccccc2N=C1NC(=O)c1cc(S(=O)(=O)N(C)C)ccc1Cl	0.89	3.2
CC(C)[C@H](NC(=O)Cc1ccccc1)C(=O)OCc1cc(=O)n2c(n1)sc1ccccc12	1	2.9
Cc1cc(NC(=O)CSc2nnnn2-c2ccccc2F)no1	0.89	-2.5
COc1ccc(C(=O)Nc2ccccc2C(=O)NCC2CCCO2)cc1 (centres undefined)	2.1	0.53
C/C(=N\NC(=O)CSc1nc2nc(C)cc(C)n2n1)c1ccccc1	0.29	-1.1
Cc1cc(N2CC(=O)N(CCc3ccccc3)C(=O)C2)n2ncnc2n1	0.17	0.02
Cc1ccc(C(=O)N2CC=C(c3ccccc3)CC2)s1	0.02	-0.94
COCCCNC(=O)Cc1c(C)c2c(cc(C)c3c(C)c(C)oc32)oc1=O	0.52	0.55
O=C(O)c1cccnc1Cl	0.93	-0.02
Cc1ccc(S(=O)(=O)Cc2ccccc2Cl)cc1	1	-0.1
CCO[C@@H]1OC(C(=O)NCc2ccccc2)=C[C@H](c2coc3ccccc3c2=O)[C@H]1CCCO	0.96	0.06
NC(=O)c1cc2ccccc2o/c1=N/NC(=O)c1cccc(F)c1	0.02	1.1
CCOC(=O)C1CCN(CCC(=O)Nc2ccccc2Cl)CC1	0.57	1.2
Nc1ccc(OC(=O)Nc2ccc(O)cc2)cc1	1.2	1.3

4 entries from above, with each value named:
SMILES: O=C(Nc1nnc(S(=O)(=O)N2CCOCC2)s1)c1ccccc1
  KCNQ2 enhance = 0.53
  KCNQ2 enhance baseline = -1.1
SMILES: CC(Sc1ccc(Cl)cc1)C(=O)NCC1CCCO1 (centres undefined)
  KCNQ2 enhance = 0.63
  KCNQ2 enhance baseline = 0.08
SMILES: Cc1c(C(=O)N/N=C/c2cccnc2)sc(N)c1C#N
  KCNQ2 enhance = 1.5
  KCNQ2 enhance baseline = -0.03
SMILES: Cc1ccc(S(=O)(=O)Cc2ccccc2Cl)cc1
  KCNQ2 enhance = 1
  KCNQ2 enhance baseline = -0.1

Bioassay records: PubChem, Johns Hopkins Ion Channel Center

These rows are one share of the data, so the mix of outcomes need not match the whole.
